Mtb growth – M. tuberculosis H37Rv growth inhibitors, H37Rv strain (AID 1626) | M. tuberculosis H37Rv growth inhibition; higher % means a stronger effect | inhibition, % at 10 µM; hits with a dose series show IC50 in µM | 220,000 compounds, 0.95% hits;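 active = confirmed in a dose series; inconclusive = inhibition above 80% but not taken into the dose series; inactive = below 80% or under 30% at every dose of the series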;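 note: bacteria incubated seven days before Alamar blue readout; 0% = bacteria only wells and 100% = bacteria with antibiotic wells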
Arbovirus anti – antivirals against arbovirus infection | arbovirus infection cell-based antiviral screen | inhibition, % at 10 µM | 200,000 compounds, 0.37% hits | AID 1251;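 active = inhibition from about 30%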;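 note: bluetongue infection of BSR cells; cell survival read as ATP light after 72 h; 0% = infected wells without compound and 100% = uninfected wells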
RecA splice inh – Mtb RecA intein splicing inhibition; P9WHJ3; inhibition, %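 (about 9 µM by stock and volumes)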; cell-free RecA intein splicing, fluorescence; AID 2221; 290,000 compounds, 0.75% hits; in the data active = inhibition above about 30%; inconclusive = no clear call, values can overlap the other calls;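 note: 0% = vehicle wells and 100% = reference inhibitor control wells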
Target sequence (P9WHJ3 whole entry, looked up, canonical isoform): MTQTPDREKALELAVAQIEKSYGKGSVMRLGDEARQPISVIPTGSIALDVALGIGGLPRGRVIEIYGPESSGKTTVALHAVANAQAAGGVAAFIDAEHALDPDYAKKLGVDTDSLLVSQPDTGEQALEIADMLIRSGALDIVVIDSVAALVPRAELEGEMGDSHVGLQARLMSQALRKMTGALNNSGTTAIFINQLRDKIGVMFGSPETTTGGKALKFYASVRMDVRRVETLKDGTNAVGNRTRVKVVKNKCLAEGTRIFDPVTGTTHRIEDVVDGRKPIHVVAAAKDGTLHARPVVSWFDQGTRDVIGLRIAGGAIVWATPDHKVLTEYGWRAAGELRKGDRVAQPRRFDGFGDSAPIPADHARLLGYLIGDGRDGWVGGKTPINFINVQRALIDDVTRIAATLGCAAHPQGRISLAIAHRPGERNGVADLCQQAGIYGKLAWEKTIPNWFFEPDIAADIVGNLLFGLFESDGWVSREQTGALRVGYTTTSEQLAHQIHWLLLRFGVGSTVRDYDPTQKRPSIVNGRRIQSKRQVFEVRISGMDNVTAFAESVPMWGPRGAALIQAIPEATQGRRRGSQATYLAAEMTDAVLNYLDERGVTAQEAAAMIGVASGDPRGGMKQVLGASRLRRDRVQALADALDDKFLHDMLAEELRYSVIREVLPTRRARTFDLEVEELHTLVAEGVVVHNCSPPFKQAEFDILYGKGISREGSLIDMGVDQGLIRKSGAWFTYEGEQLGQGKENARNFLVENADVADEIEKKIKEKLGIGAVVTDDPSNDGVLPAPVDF
Mtb betalactam – beta-lactam sensitization of Mtb H37Rv; M. tuberculosis H37Rv growth with meropenem, percent inhibition; hits of this screen are not shown here; AID 434955; 330,000 compounds, 0.27% hits; inhibition, % at 25 µM;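 active = about 74% or more and at least 40 points above the plate without the antibiotic, then above 30% in a dose series; inconclusive = first-round hits that could not be retested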;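 note: growth measured after seven days incubation then overnight dye step; 0% = bacteria only wells and 100% = bacteria with antibiotic; twin plates without the antibiotic show which effects depend on it; some results filed as inactive read as strong as hits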
YopH inh – inhibitors of Yersinia enterocolitica YopH tyrosine phosphatase | fluorescence Ex485/Em525 | inhibition, %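 (about 10 µM by stock and volumes)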 | 140,000 compounds, 0.16% hits | AID 898;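 active = inhibition of 50% or more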;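 note: controls were vehicle for no effect and minimum signal wells for full effect; inactives centre near -20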
Arbovirus anti repeat – also measured in Arbovirus anti; calls as there; inhibition, %; measured here: 10K subset replicate screen; many hits read low in the repeat;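 first of two repeat runs on a subset; 0% = infected and 100% = uninfected wells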
Numbers without * were called inactive; ? = inconclusive; . = no result given. Only part of the results is shown; rates above refer to the full screens.

SMILES	Mtb growth	Arbovirus anti	RecA splice inh	Mtb betalactam	YopH inh	others
Cc1c(C(=O)NC2CCCc3ccccc32)oc2ccc(S(=O)(=O)N3CCCC3)cc12 (configuration not stated)	37.8%	-7.5	3.2	52.9	3.0
Cc1ccc(C(=O)NN=C2CCCC2)cc1C	.	.	-0.5	4.0	.
Cc1nc2ccc(S(=O)(=O)NC(C(=O)NCc3ccc4c(c3)OCO4)C(C)C)cc2s1 (configuration not stated)	-6.0%	-3.8	0.3	-0.3	-16.5
COc1ccccc1NC(=O)/C=C/c1cc([N+](=O)[O-])ccc1OC(F)F	0.4%	.	-3.3	-6.7	.
CCOc1cc(C)nc(NCc2ccccc2)n1	10.6%	-18.1	1.2	-3.3	-30.9
COc1cccc(-n2nc(C(=O)NCC3CCCO3)c3ccccc3c2=O)c1 (configuration not stated)	.	.	-3.4	4.7	.
CCCCN(C)CCCNC(=O)c1ccc2c(c1)N(CC)C(=O)c1ccccc1S2=O (configuration not stated)	.	.	-0.6	7.3	.
CSc1ncccc1C(=O)OCC(=O)NCCC1=CCCCC1	.	.	1.6	-2.4	.
COc1ccc(CNC(=O)COC(=O)CCCOc2ccc(Cl)cc2Cl)cc1OC	-2.9%	-0.5	-0.1	-8.9	-31.4
CCN(CC)CC(O)CN1c2ccccc2Sc2ccccc21 (configuration not stated)	.	.	7.1	6.0	.
COCCn1c(SCC(=O)Nc2ccc(NC(=O)c3ccco3)c(OC)c2)nc2ccccc2c1=O	-4.8%	-8.4	-2.5	6.6	5.8
NC(N)=Nc1nc(C2COc3ccccc3O2)cs1 (configuration not stated)	5.7%	4.2	.	-1.5	-38.1
CCCC1(C(=O)OC)NC(c2cccc(F)c2)C2C(=O)N(CC)C(=O)C21 (configuration not stated)	2.8%	8.8	-1.1	-5.4	-25.6
Cc1cccc(C)c1Nc1nnc(SCc2cn3cccc(C)c3n2)s1	-7.4%	10.3	1.2	-5.2	-11.5
O=C(Nc1ccc(S(=O)(=O)Nc2cnc3ccccc3n2)cc1)c1ccc(Cl)cc1Cl	.	.	5.1	3.4	.
CN1c2ccccc2N(C)C1c1c(O)ccc2ccccc12	-7.5%	-2.8	-1.1	-11.5	-21.8
COCCNC(=O)c1onc(CSc2ccc(Cl)cc2)c1C(=O)O	-12.0%	13.8	-2.7	1.1	26.8
O=C(COC(=O)/C=C/c1ccc(Br)o1)Nc1ccccc1F	8.5%	4.6	2.8	7.4	.
C/C(=C/Cc1c(O)cc2oc(C)cc(=O)c2c1O)COC1OC(CO)C(O)C(O)C1O (configuration not stated)	-14.4%	1.2	.	-7.7	-16.1
O=C(NC(=S)Nc1nc(-c2ccc(Cl)cc2)cs1)c1cccs1	4.9%	-4.7	0.8	-0.2	.
COC(=O)CCC(C)N1CCC(Oc2ccc(C(=O)N3CCCC3)cc2)CC1 (configuration not stated)	.	.	0.8	0.9	.
CCOP(=S)(OCC)Oc1cc(C)oc(=O)c1Cl	2.3%	.	-3.8	-7.5	.
Cc1cccn2c(=O)nc(SCC(=O)N3CCCC3)nc12	.	.	0.4	-7.6	.
Cc1cccc(N(C(=O)c2csnn2)C(C(=O)NC2CCCCC2)c2ccncc2)c1 (configuration not stated)	.	.	-4.8	7.0	.

16 structures from above, ordered by length of the SMILES, lowest first:
SMILES	Mtb growth	Arbovirus anti	RecA splice inh	Mtb betalactam	YopH inh	others
NC(N)=Nc1nc(C2COc3ccccc3O2)cs1 (configuration not stated)	5.7%	4.2	.	-1.5	-38.1
CCOP(=S)(OCC)Oc1cc(C)oc(=O)c1Cl	2.3%	.	-3.8	-7.5	.
CCN(CC)CC(O)CN1c2ccccc2Sc2ccccc21 (configuration not stated)	.	.	7.1	6.0	.
CSc1ncccc1C(=O)OCC(=O)NCCC1=CCCCC1	.	.	1.6	-2.4	.
O=C(COC(=O)/C=C/c1ccc(Br)o1)Nc1ccccc1F	8.5%	4.6	2.8	7.4	.
COCCNC(=O)c1onc(CSc2ccc(Cl)cc2)c1C(=O)O	-12.0%	13.8	-2.7	1.1	26.8
Cc1cccc(C)c1Nc1nnc(SCc2cn3cccc(C)c3n2)s1	-7.4%	10.3	1.2	-5.2	-11.5
O=C(NC(=S)Nc1nc(-c2ccc(Cl)cc2)cs1)c1cccs1	4.9%	-4.7	0.8	-0.2	.
COc1cccc(-n2nc(C(=O)NCC3CCCO3)c3ccccc3c2=O)c1 (configuration not stated)	.	.	-3.4	4.7	.
COC(=O)CCC(C)N1CCC(Oc2ccc(C(=O)N3CCCC3)cc2)CC1 (configuration not stated)	.	.	0.8	0.9	.
CCCC1(C(=O)OC)NC(c2cccc(F)c2)C2C(=O)N(CC)C(=O)C21 (configuration not stated)	2.8%	8.8	-1.1	-5.4	-25.6
CCCCN(C)CCCNC(=O)c1ccc2c(c1)N(CC)C(=O)c1ccccc1S2=O (configuration not stated)	.	.	-0.6	7.3	.
Cc1cccc(N(C(=O)c2csnn2)C(C(=O)NC2CCCCC2)c2ccncc2)c1 (configuration not stated)	.	.	-4.8	7.0	.
O=C(Nc1ccc(S(=O)(=O)Nc2cnc3ccccc3n2)cc1)c1ccc(Cl)cc1Cl	.	.	5.1	3.4	.
C/C(=C/Cc1c(O)cc2oc(C)cc(=O)c2c1O)COC1OC(CO)C(O)C(O)C1O (configuration not stated)	-14.4%	1.2	.	-7.7	-16.1
COCCn1c(SCC(=O)Nc2ccc(NC(=O)c3ccco3)c(OC)c2)nc2ccccc2c1=O	-4.8%	-8.4	-2.5	6.6	5.8

Going on with the list:
SMILES	Mtb growth	Arbovirus anti	RecA splice inh	Mtb betalactam	YopH inh	others
Clc1ccc(Nc2ccc(-n3ccnc3)nn2)cc1Cl	-5.3%	-5.0	2.8	91.3	-15.8
COc1ccc(CN2CCN(C(=O)c3ccco3)CC2)cc1OCc1ccccc1	-1.5%	-3.4	2.7	-4.8	-45.4	Arbovirus anti repeat=-2.8
O=C(O)c1ccccc1NCc1ccco1	-0.8%	.	-0.4	0.0	.
O=c1[nH]c(CN2CCCCC2)nc2c1C1(CCCCC1)Cc1ccccc1-2	4.01µM*	0.1	5.6	95.3	-9.2
Cc1cccc(CC2CC(=O)N(c3ccccc3)C2=O)c1 (configuration not stated)	3.5%	-2.0	-1.0	2.6	-41.5
O=C(CCNc1cccc(F)c1)c1cc2ccccc2o1	3.2%	5.6	0.0	42.3	.
CC(C)(C)c1nnc(NC(=O)c2cccs2)s1	-1.0%	0.8	27.9	-1.1	.
O=Cc1cccn1-c1sc2c(c1C(=O)O)CCCC2	-4.4%	2.0	-2.4	-10.1	-31.8
COc1cccc(-c2cc(=O)c3cc(NC(=O)c4ccccc4)ccc3[nH]2)c1	-0.8%	-21.0	-3.2	9.0	-38.3
COc1ccc(C(=O)NNC(=O)CSc2nnnn2C)cc1	-1.2%	3.1	-2.6	1.1	.
O=C(c1ccccc1F)c1cn(CC(=O)N2CCCCC2)c2ccccc12	3.0%	0.1	.	0.5	-29.0
Cc1cccc(C)c1NC(=O)CN(C)C(=O)c1ccccc1SCC(=O)N1CCCC1	.	.	0.5	-10.9	.
CN(C)S(=O)(=O)N1CCC(c2ccc(F)cc2)C(COc2ccc3c(c2)OCO3)C1 (configuration not stated)	14.6%	-16.0	.	24.0	5.3
O=C(CSC(=S)N1CCCC1)N1CCN(S(=O)(=O)c2cccc(F)c2)CC1	.	.	-2.5	-1.1	.
CC(/C=C/c1ccco1)=N/NC(=O)CNc1ccccc1C	4.6%	0.9	1.6	-3.0	.
CN1CCN(C(=O)CSc2cc(=O)n(C)c3ccccc23)CC1	-3.9%	-4.3	-0.9	-0.5	.
O=C(O)c1ccc(Oc2cccc([N+](=O)[O-])c2)cc1C(=O)O	-8.2%	9.8	0.6	3.9	-47.9
Cc1ccc(N(C(=O)CNC(=O)c2ccco2)C(C(=O)NC2CCCC2)c2cccnc2)cc1C (configuration not stated)	-9.6%	-2.5	0.0	-4.2	-27.6
O=C(C/C=N/OCc1ccc(Cl)cc1)c1cnc(-c2ccccc2)s1	-0.3%	6.2	.	53.4	-51.1
CC(C)(C)OC(=O)N1CCC(C(=O)N[C@@H](Cc2ccccc2)C(=O)O)(c2ccccc2)CC1	8.1%	4.5	-7.2	-5.2	-19.4
Cn1nc(C(C)(C)C)c([N+](=O)[O-])c1C(=O)Nc1ccc(Br)cc1	-1.5%	.	1.9	-3.5	.
CCc1nc2ccccc2n1CC(O)COc1ccc(NC(C)=O)cc1 (configuration not stated)	-1.4%	-1.1	0.6	-8.8	-13.5
COc1ccc(C(=O)N=c2sc3c(C)ccc(OC)c3n2C)cc1OC	-1.9%	.	-2.2	?	.
Cc1ccc2[nH]c(=O)c(N3CCOCC3)c(-c3ccccc3)c2c1	1.5%	9.4	-3.7	-2.0	-27.2
CCC(C)n1c(=O)c(C(=O)Nc2ccccc2S(N)(=O)=O)c(O)c2ccccc21 (configuration not stated)	5.7%	-30.3	6.4	-4.2	-36.9
O=C(Nc1ccn(Cc2ccc(Cl)cc2)n1)c1ccccc1	0.4%	-22.0	3.7	44.2	.
CCCCc1cc2c(c(NC(=O)CC)n1)c(=O)oc1ccccc12	12.6%	5.0	1.0	.	34.7
Cc1cc(C(=O)CSc2nc3ccccc3[nH]2)c(C)n1CC1CCCO1 (configuration not stated)	4.0%	12.0	-3.5	-3.1	-40.3
O=S(=O)(NCCC1=CCCCC1)c1cccc(Br)c1	.	.	2.7	-0.9	.
OCC1OC(Oc2c[nH]c3ccccc23)C(O)C(O)C1O (configuration not stated)	.	.	13.5	-1.9	.
CC(CN1CCOCC1)OC(=O)c1cccc(Br)c1 (configuration not stated)	-6.4%	-2.2	-0.5	1.6	-0.6
CCCOc1ccc(-c2c(=O)n(OCc3ccc([N+](=O)[O-])cc3)c3ccccc3[n+]2[O-])cc1	0.3%	-11.8	-0.5	50.1	-0.9
CCCC[N+]12CCC(CC1)C(=C(c1ccccc1)c1ccccc1)C2	2.2%	-0.9	-0.6	-2.2	-20.6
COc1ccc(CCNC(=O)C2CCN(C(=O)c3ccc(F)cc3)CC2)cc1OC	.	.	-1.7	-5.3	.
Cc1ccc(-c2nn3c(C)nnc3s2)cc1NC(=O)c1cccs1	0.7%	5.8	0.9	20.6	-27.7
COCCNC(=O)CCC1CCN(Cc2cccc(Oc3ccccc3)c2)CC1	.	.	-1.4	1.3	.
NS(=O)(=O)c1ccc(NC(=O)/C=C/c2cccc(Cl)c2)cc1	1.9%	14.7	0.6	2.4	.
COc1ccc(-n2c(COc3cccc4ccccc34)nnc2SC(C)C(=O)O)cc1 (configuration not stated)	-4.3%	15.1	5.8	-0.6	.
CCN(CC)C(=O)c1ccccc1NS(=O)(=O)c1ccc(C)cc1	-4.2%	0.0	-11.9	-9.7	-31.1
CCn1c(C)nc2cc(NC(=O)Nc3cccc(C(C)=O)c3)ccc21	.	.	-1.2	5.0	.
Cc1nnc(NC(=O)CCCOc2ccccc2)s1	-8.8%	-2.7	-1.9	-3.7	-22.2
CC1=C(C(=O)Nc2ccccc2)C(c2ccco2)C(C#N)=C(SCC(=O)Nc2cccc(C)c2C)N1 (configuration not stated)	4.1%	-21.3	11.3	26.9	5.3
CC(C)(CC(=O)O)CC(=O)NNc1ncccc1C#N	9.5%	.	-1.9	-3.2	.
COc1ccc(OC)c(NC(=O)CCNS(=O)(=O)c2cccs2)c1	-4.5%	-2.2	4.1	-1.1	-24.5	Arbovirus anti repeat=2.4
CC(C)(C)n1ncc2c(=O)n(Cc3ccc(Cl)cc3)cnc21	4.3%	17.7	4.2	0.6	.
O=[N+]([O-])c1cccc(CNC2CCCCCC2)c1	-0.9%	-6.5	0.6	-1.7	.
O=C(NCc1cccs1)C(NS(=O)(=O)c1cccc2nsnc12)c1ccccc1 (configuration not stated)	-9.5%	-2.8	3.0	0.9	-49.6
CCCCN(C(=O)CSc1nnc(-c2ccccc2)n1C)c1c(N)n(Cc2ccccc2)c(=O)[nH]c1=O	0.5%	-4.4	1.8	0.5	-2.5
CC(C)CNC(=O)NC(=O)COC(=O)COc1ccc(Cl)cc1Cl	0.4%	.	3.0	-5.9	.
Clc1ccc2c(c1)C1OCCC1C(c1ccco1)N2 (configuration not stated)	-5.7%	-12.8	8.8	-1.0	-44.4
CC1S/C(=N/N=C2CCC(C(C)(C)C)CC2)NC1=O (configuration not stated)	0.4%	0.5	2.4	17.1	-37.6
Cc1cccc2c(C(=O)O)c3c(nc12)CCCCC3	8.6%	7.6	2.6	-10.8	-49.6
CCc1c(C)nc2c(C#N)c[nH]n2c1=O	-1.1%	6.5	-1.0	2.2	-41.8
Cc1cccc(C(=O)N[C@H](C(=O)Nc2cc(S(=O)(=O)N3CCCCC3)ccc2C)C(C)C)c1	13.0%	0.7	1.0	-1.2	-37.4

High-throughput results as filed in PubChem BioAssay.
